Beta apoptosis – beta cell apoptosis inhibition. 300,000 compounds, 0.8% hits. AID 435005. protection from apoptosis, % (no concentration beside the values). INS-1E cytokine-induced death, ATP luminescence, 48 h; percent of positive-control rescue, neutral wells zero;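 active = all replicates at 75% or more, or half of them and the mean; inconclusive = half reach 75% but not the mean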;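 also: 0% = cytokine-treated negative control wells and 100% = positive control rescue; higher means more ATP so stronger rescue from cytokine killing; wells of about 40 µL received 100 nL stock; the first replicate is given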
T cruzi repl – T. cruzi replication inhibition; T. cruzi beta-gal in NIH3T3, luminescence, 90 h; inhibition, % (no concentration beside the values); 300,000 compounds, 1.4% hits;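 active = mean inhibition across valid replicates above about 55%, limit read from the data; inconclusive = mean below that limit but half or more replicates reach it; inactive = mean below it, under half of replicates reach it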;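 also: signal also drops with host cell toxicity which is not excluded here; 0% = plate median of DMSO wells and 100% = zero luminescence signal; higher percent means less beta-gal luminescence so fewer parasites; stock transfer was 50 nL into about 50 µL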
FGF22 binding – shifts melting point of recombinant human FGF22. recombinant FGF22 thermal shift, SYPRO orange fluorescence; percent of sucrose octasulfate shift, DMSO zero. calls only at 9.99 µM. 340,000 compounds, 1.5% hits;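 active = melting point raised past a set limit in the mean and every replicate; inconclusive = no clear call; three in four hits are not shown here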
Target sequence (Q9HCT0 whole entry, looked up): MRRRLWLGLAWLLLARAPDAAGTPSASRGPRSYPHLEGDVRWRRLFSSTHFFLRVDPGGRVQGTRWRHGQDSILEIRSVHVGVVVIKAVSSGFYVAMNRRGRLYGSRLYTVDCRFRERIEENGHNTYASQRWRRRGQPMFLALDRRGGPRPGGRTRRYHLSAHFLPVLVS
UCH37 inh – human UCH37 deubiquitinating enzyme inhibition; Q9Y5K5; purified proteasome/UCH37, Ub-AMC cleavage fluorescence; inhibition, % (concentration not given with the values); 330,000 compounds, 0.33% hits; AID 588478;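 active = mean of two replicates above 20%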;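 also: 0% = compound-free wells with enzyme and 100% = wells lacking proteasome; stock transfer was 100 nL into about 20 µL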
Target sequence (Q9Y5K5 whole entry, looked up): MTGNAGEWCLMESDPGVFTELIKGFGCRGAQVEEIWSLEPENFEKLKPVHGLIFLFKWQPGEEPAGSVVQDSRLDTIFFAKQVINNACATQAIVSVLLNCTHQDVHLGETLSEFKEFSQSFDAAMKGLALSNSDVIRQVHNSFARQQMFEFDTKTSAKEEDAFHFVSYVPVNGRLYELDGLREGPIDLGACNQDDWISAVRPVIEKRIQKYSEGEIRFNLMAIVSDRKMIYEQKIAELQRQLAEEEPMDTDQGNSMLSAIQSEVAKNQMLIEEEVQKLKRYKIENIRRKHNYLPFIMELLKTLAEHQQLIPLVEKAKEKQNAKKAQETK
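Reagent: Ub-AMC substrate; assay system: Proteasome-associated human UCH37 deubiquitinase; controls: no-proteasome and no-compound wells; read-out: % inhibition of Ub-AMC cleavage fluorescence; timing: 30 min preincubation with enzyme, 25 min cleavage at room temperature; signal: AMC fluorescence from Ub-AMC cleavage, excitation 355 nm, emission 460 nm; buffer or medium: Tris-HCl pH 7.4 plus ovalbumin, ATP-MgCl2, DTT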
Ecoli growth – inhibitors of Escherichia coli growth; OD600, 23 h; stronger effect = lower value; OD600 absorbance (no concentration beside the values); AID 1053175; 330,000 compounds, 0.21% hits;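 active = OD600 absorbance below the run mean of sample wells minus 3.6 SD, in any replicate, cut at about 0.56 in these data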;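 also: stock transfer was 300 nL into about 60 µL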
A1 inh – inhibitors of the anti-apoptotic protein A1, read as caspase activation; MEF A1-2A-BIM cells, Caspase-Glo 3/7 luminescence, 3 h; percent of clofoctol response, vehicle zero; caspase activation, % (no concentration beside the values); 330,000 compounds, 0.066% hits;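 active = over half of replicate activation scores above 10%, or exactly half above 10 with the replicate mean above 10; inconclusive = replicate mean below 10 yet half the replicates above 10; inactive = over half of replicates below 10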;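 also: wells of about 30 µL received 50 nL stock; many hits fall short of the cut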
MLL AF4-AF9 inh – blocks AF4 peptide binding to human AF9. 350,000 compounds, 0.47% hits. AlphaScreen, biotin-AF4 peptide binding to FLAG-AF9. inhibition, % at 10 µM. AID 651704;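 active = every replicate reaching a set inhibition limit, whatever the replicate mean, cut at about 25% in these data; inconclusive = mean inhibition reaches that limit but some replicates miss it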;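 also: 0% = plate neutral control median and 100% = total signal loss; the record names both 10 and 1 µM as test concentration; the first replicate is given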
Target sequence (P42568 whole entry, looked up): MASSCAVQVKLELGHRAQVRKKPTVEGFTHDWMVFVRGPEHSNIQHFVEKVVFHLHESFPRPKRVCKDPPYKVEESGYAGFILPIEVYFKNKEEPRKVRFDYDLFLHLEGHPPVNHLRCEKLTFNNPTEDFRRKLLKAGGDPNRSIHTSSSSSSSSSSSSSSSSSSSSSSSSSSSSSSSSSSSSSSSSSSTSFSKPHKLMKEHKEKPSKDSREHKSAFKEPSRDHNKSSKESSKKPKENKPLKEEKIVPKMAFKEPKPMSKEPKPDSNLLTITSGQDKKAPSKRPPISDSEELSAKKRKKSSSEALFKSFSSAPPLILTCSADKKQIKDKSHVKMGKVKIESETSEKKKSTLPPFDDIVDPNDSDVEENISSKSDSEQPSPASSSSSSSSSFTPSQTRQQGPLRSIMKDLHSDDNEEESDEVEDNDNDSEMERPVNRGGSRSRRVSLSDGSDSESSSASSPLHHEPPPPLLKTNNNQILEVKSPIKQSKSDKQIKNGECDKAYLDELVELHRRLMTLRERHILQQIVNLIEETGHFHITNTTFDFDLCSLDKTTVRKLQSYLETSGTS
rRNA inh HTS – inhibitors of bacterial rRNA selective over humanized ribosomes | E. coli WT GFP vs humanized-ribosome RFP mutants, fluorescence, 24 h; stronger effect = lower value; DMSO median 0, no signal -100 | GFP signal change (wild-type ribosome), % (concentration not given with the values) | 350,000 compounds, 1.6% hits | AID 720706;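 active = significant combined selectivity score with lowered wild-type GFP, culture density cut under 30%, mutant RFP and density less affected; inactive = any of these conditions unmet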; also: one replicate is shown; some compounds called inactive have numbers as strong as hits
rRNA inh HTS OD600 – second read-out of rRNA inh HTS, no call of its own (marks repeat the call); OD600 change, %; measured here: OD600 growth;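 optical density of the mix in the first replicate; 0 = DMSO median and -100 = no signal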
rRNA inh HTS RFP – recorded beside rRNA inh HTS, whose call it bears; RFP signal change, %; measured here: RFP humanized mutant strains;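 first replicate; 0 = DMSO median and -100 = no signal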
Active calls of the source: *; i = inactive; ? = inconclusive; . = not tested or not shown.

SMILES	Beta apoptosis	T cruzi repl	FGF22 binding	UCH37 inh	Ecoli growth	A1 inh	MLL AF4-AF9 inh	rRNA inh HTS	rRNA inh HTS OD600	rRNA inh HTS RFP
O=C(c1ccccn1)C1CCCN(Cc2cn[nH]c2-c2cc3ccccc3o2)C1 (centres undefined)	-3	49	i	0.2	0.69	-0.5	2.9	2	-2	1.3
O=C(COC(=O)c1ccc(Br)o1)NCc1ccco1	-3	0	.	2.1	0.71	0.3	.	.	.	.
Fc1ccc(NC(=S)Nc2ccc(Br)cc2)cc1	2	-45	.	3.5	.	-0.5	.	.	.	.
CCN1C(=O)c2ccc(C(=O)Nc3ccc(O)cc3C)cc2C1=O	-1	-21	i	.	.	0.2	-1.4	2	5	-5.5
O=C(NC1CCN(Cc2ccc(Cl)cc2)CC1)c1cn(-c2ccccc2)nc1-c1cccnc1	21	.	i	2.3	0.66	1.3	8.4	-25	-22	15
Cc1cccc(C(=O)NNC(=O)c2ccc(S(=O)(=O)N3CCOCC3)cc2)c1	-12	-18	.	3.2	0.64	0.4	1.3	-3	1	2.2
CC1CN(c2ccc(S(=O)(=O)N3CCCC3)cn2)CC(C)O1 (centres undefined)	-5	-6	i	1.6	0.72	0.5	-1.0	4	1	-4.5
Cc1cccc(/C=N/n2c(-c3cc(-c4ccccc4)n[nH]3)n[nH]c2=S)c1	-5	9	i	.	.	-0.1	3.2	8	10	5.4
O=C(CNC(=O)C(c1ccccc1)c1ccccc1)N/N=C/c1cccnc1	-9	-17	i	.	.	0.8	.	16	21	1.8
Cc1c(C)c2ccc(OCC(=O)NC3CCN(Cc4ccccc4)CC3)cc2oc1=O	2	35	i	-88	0.7	0.2	-4.9	-14	-14	-2.9
CC(C)CCN(C(=O)c1ccncc1)c1c(N)n(Cc2ccccc2)c(=O)[nH]c1=O	-2	.	i	2.2	0.68	0.3	2.6	.	.	.
COCCNC(=O)COc1cccc(Oc2ccccc2)c1	-6	-1	.	5.0	0.7	1.4	.	.	.	.
O=C1CCc2cc(S(=O)(=O)Nc3ccccc3F)cc3c2N1CCC3	-4	2	i	5.2	0.67	1.1	-2.5	-4	-8	1.6
COc1cccc2sc3cc(NCc4ccc5c(c4)OCO5)ccc3c(=O)c12	-5	.	i	-19	0.71	-0.1	0.5	-23	-31	-7.1
O=S(=O)(Nc1nc2ccccc2nc1NCC1CCCO1)c1ccccc1 (centres undefined)	-3	-7	.	-52	0.68	0.5	-53	0	-8	-6.6
CCCCN(C)CCNC(=O)c1cc2c(-c3ccccc3F)nn(C)c2s1	97*	-8	i	-52	0.65	0.7	3.7	-2	-3	3.0
Fc1ccc(-c2csc3ncnc(N4CCc5ccccc5C4)c23)cc1	0	7	i	2.5	0.73	0.2	-3.8	-31	-33	-22
O=C1C(=O)c2ccccc2C(O)=C1C1CCC(c2ccc(Cl)cc2)CC1 (centres undefined)	12	.	i	6.7	0.71	0.2	2.5	-3	2	-2.2
Cc1ccc2[nH]c3c(c2c1)CCN(C)C3	2	9	i	1.1	0.68	0.1	7.9	3	7	1.5
Cc1cc(=O)n2[nH]c(C(=O)O)nc2n1	-10	-11	.	-1.6	0.67	-0.6	.	.	.	.
CC(C)Cc1nc2oc3c(NCC4CCCO4)ncnc3c2c2c1CCC2 (centres undefined)	.	-11	.	-18	0.72	-0.2	.	.	.	.
Cc1nnc(SCc2nc3ccccc3nc2C)s1	-5	-4	.	2.6	0.73	-0.5	.	.	.	.
Cc1ccc(C2(CCNS(=O)(=O)c3ccc(C)cc3)CCOC(C(C)C)C2)cc1 (centres undefined)	5	6	.	3.3	0.73	0.0	.	.	.	.
Cc1cc(C)c(S(=O)(=O)N2CCCCC2CCNC(=O)C(=O)NCc2ccco2)c(C)c1 (centres undefined)	.	-10	i	1.1	0.69	-0.6	-1.1	-3	-11	7.0
Cc1nn(C(C)C(=O)NCCCN2CCCC2)c(=O)c2nn(-c3ccccc3)c(C)c12 (centres undefined)	-4	-7	i	4.1	0.69	-0.3	-0.9	9	8	6.6
Additional structures.
SMILES	Beta apoptosis	T cruzi repl	FGF22 binding	UCH37 inh	Ecoli growth	A1 inh	MLL AF4-AF9 inh	rRNA inh HTS	rRNA inh HTS OD600	rRNA inh HTS RFP
COc1ccc(-n2cc(CNCCc3cnc[nH]3)c(-c3cccc(F)c3)n2)cc1	-7	38	.	0.4	0.65	-2.0	30*	-33	-58	8.0
CCOc1ccc(N=C(NC#N)SCC)cc1	.	27	.	5.0	0.72	0.2	.	.	.	.
Cc1sc2nc(CN3CCOCC3)nc(NS(=O)(=O)c3cc(Cl)ccc3Cl)c2c1C	5	.	i	2.4	0.72	0.1	-2.3	.	.	.
CCC1(C)Cc2c(sc3nc4n(c(=O)c23)CCS4)CO1 (centres undefined)	2	3	.	3.2	0.74	0.2	.	.	.	.
CCOc1ccc(C(C)NC(=O)Cc2ccccc2)cc1OCC (centres undefined)	-5	9	i	5.8	0.69	0.4	1.9	9	4	3.4
Cc1cc(C)c2c(=O)n(CC(=O)N3CCC(N4CCCCC4)CC3)sc2n1	-2	-9	i	4.2	0.74	-0.5	-16	9	8	-3.1
CCOc1ccc(C(=O)N2CCN(c3ccccn3)CC2)cc1	.	-8	i	0.0	0.62	-0.6	-2.2	-4	-8	-4.3
Cc1cccc(C(C)C)c1NC(=O)COC(=O)CN1C(=O)C2CC=CCC2C1=O (centres undefined)	-1	-8	i	0.8	0.66	-0.2	2.5	-1	1	-1.4
CC1CC1C(=O)OCC(=O)NNC(=O)COc1ccc(Br)cc1 (centres undefined)	-2	-2	i	-2.8	0.69	-0.1	0.3	-3	-5	0.9
CC(=O)NCc1ccc(C(=O)CSc2nnc(C3CC3)n2C2CC2)cc1	-8	.	i	1.5	0.67	2.1	-2.3	10	10	-4.1
CCCCCCCN(C(=O)CCl)c1cccc(C)c1	11	24	i	-1.0	0.66	0.5	-5.8	-10	-10	3.2
O=C(Cc1ccccc1)Nc1ccccc1Oc1ccccc1	-2	-12	.	3.3	0.72	-0.2	.	.	.	.
O=C(NC1CCCCCCC1)C1c2ccccc2C(=O)N1Cc1cccs1 (centres undefined)	-1	1	i	4.8	0.74	0.7	-2.7	10	17	-0.4
Cc1ccc(NC(=O)CSc2nc3ccc(Nc4nc(N5CCOCC5)nc(N5CCOCC5)n4)cc3s2)cc1	41	.	i	0.0	0.75	10*	-1.5	.	.	.
CCOC(=O)c1sc(NC(=O)CSc2n[nH]c(C)n2)nc1C	-1	-11	.	0.6	0.67	-0.1	-1.7	-19	-25	1.6
C=CCOC(=O)C1=C(C)NC(C)=C(C(=O)OCC=C)C1c1cccs1	16	38	i	-15	0.66	0.2	-6.1	-17*	-4.3*	3.9*
Cc1c(N=Cc2cc3c(cc2Cl)OCO3)c(=O)n(-c2ccccc2)n1C	-6	-11	.	0.9	0.69	0.4	.	.	.	.
CCOC(=O)/C(=N/Nc1ccc(Cl)cc1)S(=O)(=O)c1ccccc1	-3	25	i	.	.	0.2	-41	4	5	-2.0
Cc1cccc(-c2ncc(S(=O)(=O)C(C)(C)C)c(N)n2)c1	6	8	i	1.1	0.68	-2.6	.	4	11	-2.2
Cc1ccc2nc(-c3ccncc3)cc(C(=O)Nc3ccc(OC(F)F)cc3)c2c1	15	?	i	-0.1	0.72	-0.2	-1.0	5	4	1.5
O=[N+]([O-])c1cc(/C=N\Nc2ccccn2)ccc1Cl	-4	-3	i	.	.	-1.5	-0.3	5	2	-0.3
O=C(CN1CC(c2ccccc2)CC1=O)OCc1ccccc1F (centres undefined)	-29	-9	.	2.2	0.67	0.6	.	.	.	.
COCCCNC(=O)CSc1nc2c(sc3ccccc32)c(=O)n1CCCC(=O)NCC1CCCO1 (centres undefined)	1	9	i	7.5	0.73	0.8	-2.3	3	-3	0.0
CC(Sc1nc2ccccc2[nH]1)C(=O)O (centres undefined)	.	-7	.	1.3	0.67	0.0	.	.	.	.
COCCNc1nnc(SCC(=O)NNC(=O)c2ccc([N+](=O)[O-])cc2)s1	1	-5	i	-1.7	0.63	0.2	-1.5	1	15	-2.1
Next compounds:
SMILES	Beta apoptosis	T cruzi repl	FGF22 binding	UCH37 inh	Ecoli growth	A1 inh	MLL AF4-AF9 inh	rRNA inh HTS	rRNA inh HTS OD600	rRNA inh HTS RFP
Cc1n[nH]c(=O)c2c(NC(=O)CSc3ccccc3Cl)oc(C)c12	-7	4	i	.	.	0.4	-2.4	1	-5	-3.8
COC(=O)CN1C(=O)S/C(=C/c2cc(C)n(C)c2C)C1=O	5	-8	.	8.2	0.69	-1.4	.	.	.	.
O=C(CN1C(=O)NC2(CCCc3ccccc32)C1=O)NCc1cccs1 (centres undefined)	-2	.	i	1.7	0.67	-0.1	-0.2	16	6	2.9
CCSC1=C(C#N)C(c2ccc3c(c2)OCO3)C2=C(CCCC2=O)N1 (centres undefined)	-13	.	.	1.9	0.78	0.0	.	.	.	.
COc1ccc(N(CC(=O)N/N=C/c2cccnc2)S(=O)(=O)c2ccccc2)c(OC)c1	-4	13	i	.	.	1.2	1.5	11	8	2.3
CCOC(=O)C1=C(C)N(CC)C(=S)NC1c1ccccc1OC(F)F (centres undefined)	-12	4	i	1.7	0.65	0.4	-1.4	0	9	-4.6
c1coc(CN2CNc3nc4ccccc4n3C2)c1	-9	4	i	-2.2	0.63	0.1	2.1	-3	4	-0.9
Cc1cc(C(=O)NC2CCCC2)c2ccccc2n1	.	-8	i	0.6	0.65	1.4	-0.3	12	3	-1.7
CSc1nc2ccc3nc(NC(=O)c4ccc(Cl)s4)sc3c2s1	3	-25	.	-28	0.77	0.3	.	.	.	.
Cc1ccc(NC(=O)C2COc3ccccc3O2)cc1S(=O)(=O)N1CCCCC1 (centres undefined)	-2	.	i	1.8	0.7	0.9	1.4	4	-29	3.3
CCCOC(=O)c1ccc(NC(=O)C2C3CCC(C3)C2C(=O)O)cc1 (centres undefined)	2	2	.	4.3	0.66	0.4	.	.	.	.

An excerpt from the list above, as a working copy:
SMILES	Beta apoptosis	T cruzi repl	FGF22 binding	UCH37 inh	Ecoli growth	A1 inh	MLL AF4-AF9 inh	rRNA inh HTS	rRNA inh HTS OD600	rRNA inh HTS RFP
CCSC1=C(C#N)C(c2ccc3c(c2)OCO3)C2=C(CCCC2=O)N1 (centres undefined)	-13	.	.	1.9	0.78	0.0	.	.	.	.
COc1ccc(N(CC(=O)N/N=C/c2cccnc2)S(=O)(=O)c2ccccc2)c(OC)c1	-4	13	i	.	.	1.2	1.5	11	8	2.3
CCOC(=O)C1=C(C)N(CC)C(=S)NC1c1ccccc1OC(F)F (centres undefined)	-12	4	i	1.7	0.65	0.4	-1.4	0	9	-4.6
c1coc(CN2CNc3nc4ccccc4n3C2)c1	-9	4	i	-2.2	0.63	0.1	2.1	-3	4	-0.9
Cc1cc(C(=O)NC2CCCC2)c2ccccc2n1	.	-8	i	0.6	0.65	1.4	-0.3	12	3	-1.7

Screening data deposited in PubChem by several laboratories.

A portion of the library. The share of hits here may be higher or lower than overall.
